# Screening data deposited in PubChem by National Center for Advancing Translational Sciences (NCATS).
# Lassa entry inh = qHTS for Inhibitors of binding or entry into cells for Lassa Virus; Potency, µM (doses to about 37.9 µM), for the others: at the top dose activity change, negative = inhibition, hits mostly inhibitors; Lassa virus pseudotype entry inhibition, cell reporter; control for the full effect not named in the record; hit rate 1.2% among 300,000; active means well fitted inhibition curve with a large enough effect; inconclusive means small, poorly fitted or top-dose-only effect, or effect the other way; inactive means flat fitted curve, though single readings scatter; tested in HEK293 cells; also: % is scaled to controls: 0 for no effect and ±100 for the full control effect; nearly all actives have a fitted effect of over 50% in size; luciferase read-out
# NS1 function inh = qHTS Assay for Inhibitors of Influenza NS1 Protein Function. S. cerevisiae slowed by influenza A NS1, growth recovery by OD600. Potency, µM (series often up to 46.1 µM), for inactives: at the top dose activity, positive = more growth. hit rate 0.4% among 270,000. AID 2326, 2010; also: actives are rising curves; nearly all actives have a fitted effect of over 50% in size
#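 Compounds were scored for reversing the slow growth caused by influenza A NS1 in S. cerevisiae, measured by optical density at 600 nm. Assay medium contained 2% galactose at pH 6.0; NS1-free yeast of the same strain were the positive control.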
# Cruzain inh Det = qHTS Assay for Promiscuous and Specific Inhibitors of Cruzain (with detergent); purified cruzain, Z-FR-AMC fluorescence, 0.01% Triton; hit rate 0.43% among 200,000; Potency, µM, for the others: max response, negative = inhibition, actives largely listed as inhibitors; Cruzipain (Trypanosoma cruzi), P25779; active = well fitted curve in the direction sought with a large enough effect; inconclusive = small, poorly fitted or top-dose-only effect, or another doubt; inactive = no such curve, though single readings can be large; an effect the other way counts as inactive or inconclusive;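 also: plate controls were neutral wells for no effect and buffer without enzyme for full effect; nearly all actives have a fitted effect of over 40% in size; top concentration of the series not given in the record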
# Target sequence (P25779 123-467 limits assumed): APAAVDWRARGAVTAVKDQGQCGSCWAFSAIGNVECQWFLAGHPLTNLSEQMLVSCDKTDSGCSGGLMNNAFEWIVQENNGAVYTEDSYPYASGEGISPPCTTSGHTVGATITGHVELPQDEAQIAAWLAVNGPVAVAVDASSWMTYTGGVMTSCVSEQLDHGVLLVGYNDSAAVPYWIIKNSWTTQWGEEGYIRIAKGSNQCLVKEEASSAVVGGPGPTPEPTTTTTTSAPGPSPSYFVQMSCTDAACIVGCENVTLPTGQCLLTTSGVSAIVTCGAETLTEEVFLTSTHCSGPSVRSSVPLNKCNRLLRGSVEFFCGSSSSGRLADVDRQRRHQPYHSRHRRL
#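 Enzyme 1.5 nM, Z-FR-AMC 2 uM, NaOAc 100 mM pH 5.5, DTT 5 mM, Triton X-100 0.01%; 15 min RT compound preincubation; kinetic ex360/em450, 60 s delta.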
# 2A StopGo = High Throughput Screening for Foot and Mouth Disease Virus Antivirals; hit rate 1.2% among 410,000; Potency, µM (series often up to 57.9 µM), for inactives: at the top dose signal change, negative = less light; human cells with a luciferase reporter of 2A StopGo recoding; control for the full effect not named in the record; AID 1159524, 2015; active = well fitted falling curve with a large enough effect; inconclusive = small, poorly fitted or top-dose-only effect; inactive = no such curve, though single readings can be large or run the other way; tested in HEK293T cells; also: % is scaled to controls: 0 for no effect and ±100 for the full control effect; nearly all actives have a fitted effect of over 45% in size; luciferase light after 4 h
# SARS PLpro yeast = qHTS of Yeast-based Assay for SARS-CoV PLP; S. cerevisiae expressing SARS-CoV PLpro, growth rescue; control for the full effect not named in the record; Potency, µM (highest dose often 32.9 µM), inactives show at the top dose activity, positive = growth rescue; hit rate 0.19% among 330,000; AID 485353, 2010; also: 0% is about no effect; nearly all actives have a fitted effect of over 55% in size; growth read by luminescence after 48 h
# MARV entry inh = qHTS for inhibitors of binding or entry into cells for Marburg Virus. hit rate 1.8% among 300,000. Marburg virus pseudotyped entry inhibition, cell reporter; control for the full effect not named in the record; about a third of the inactives were read at about 46 µM. Potency, µM (top dose mostly 37.8 µM), for the others: at the highest dose activity change, negative = inhibition, usual class: inhibitors; active = well fitted inhibition curve with a large enough effect; inconclusive = small, poorly fitted or top-dose-only effect, or effect the other way; inactive = flat fitted curve, though single readings scatter; tested in HEK293 cells; about a fifth of its hits are not listed in these tables; also: % is scaled to controls: 0 for no effect and ±100 for the full control effect; luciferase read-out
# RE007 growth inh = qHTS Assay for Inhibitors of the HIV-1 protein Vpr; S. pombe RE007 Vpr strain, BacTiter-Glo ATP luminescence, 24 h; control for the full effect not named in the record; hit rate 0.21% among 360,000; Potency, µM (top dose mostly 92.2 µM), for the others: top-dose activity change, negative = less growth; active = well fitted falling curve with a large enough effect; inconclusive = small, poorly fitted or top-dose-only effect; inactive = no such curve, though single readings can be large or run the other way;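 also: % is scaled to controls: 0 for no effect and ±100 for the full control effect; nearly all actives have a fitted effect of over 50% in size; the assay follows cell death caused by Vpr and the record does not say whether a fall means rescue or toxicity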
#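 Fission yeast RE007 carrying one integrated HIV-1 vpr copy, seeded at OD 0.01 in PMG+AL medium with 23 nL pinned compound. Grown 24 h at 30 degrees; viability read by BacTiter-Glo luminescence after 5 min.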
# Cruzain noTriton = qHTS Assay for Promiscuous and Specific Inhibitors of Cruzain (without detergent). Cruzipain (Trypanosoma cruzi), P25779. purified cruzain, Z-FR-AMC fluorescence, no detergent. Potency, µM, inactives show max response, negative = inhibition, most hits filed as inhibitors. hit rate 2.3% among 200,000. AID 1476, 2009; active = well fitted curve in the direction sought with a large enough effect; inconclusive = small, poorly fitted or top-dose-only effect, or another doubt; inactive = no such curve, though single readings can be large; an effect the other way counts as inactive or inconclusive;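 also: plate controls were enzyme without inhibitor for no effect and buffer without enzyme for full effect; nearly all actives have a fitted effect of over 40% in size; top concentration of the series not given in the record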
#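 Detergent-free condition (0.00005% Triton X-100) in acetate buffer pH 5.5 with DTT. 1.5 nM enzyme and compound were pre-mixed 15 min, then 2 uM Z-FR-AMC substrate added; reaction progress from fluorescence change between first and third reads (60 s).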
# * marks the source's active call; other numbers are inactive results; ? = inconclusive; · = not tested or not shown; & = joins results of further samples; [ ] = remark or other dose. Unless noted, calls follow the shape of the dose curve; as a rule, active means well fitted rising curve with a large enough effect; inconclusive means small, poorly fitted or top-dose-only effect; inactive means no such curve, though single readings can be large or run the other way. Potency is read from the fitted curve at half-maximal effect.
entry	mol	Lassa entry inh	NS1 function inh	Cruzain inh Det	2A StopGo	SARS PLpro yeast	MARV entry inh	RE007 growth inh	Cruzain noTriton
1	CCOC(=O)[C@H]1[C@H]2COc3cc(OC)ccc3[C@@H]2N2C(=O)CN(Cc3ccc(OC)cc3)C(=O)[C@@]12C	·	·	·	-9%	-5%	0%	8%	·
2	COc1ccc(N(CC(=O)NCc2cccs2)S(=O)(=O)c2cccnc2)cc1	·	-14%	1.9%	14%	-6%	·	3%	4%
3	COc1ccc(S(=O)(=O)Nc2ccc(C(N)=O)cc2)cc1C(=O)N1CCCCCC1	-8%	1%	·	11%	11%	-14%[46.1 µM]	-4%	·
4	COc1ccc(-n2c(Cc3ccccc3)nnc2SCC(=O)N2CCCc3ccccc32)cc1	9%	-14%	-6.5%	4%	0%	-29%[46.1 µM]	2%	24%
5	CSc1nnc(C)c(=O)n1COC(=O)COc1ccccc1	2%	1%	3.1%	-15%	-18%	?	-25%	-9%
6	CCN(CC)C(=O)N1CCN(C(=O)c2ccc(C)cn2)CC1	4%	-4%	5.2%	-11%	-2%	0%	-7%	15%
7	O=C(N/N=C/c1cc(Br)ccc1O)Nc1ccccc1	-23%	-33%	-9.9%	46%[activator]	-21%	?	12%	-9%
8	Cc1ccc(S(=O)(=O)NNC(=O)C(O)(c2ccccc2)c2ccccc2)cc1	-9%	-11%	-2.0%	18%	5%	-1%	27%	-6%
9	CCOc1ccc(Br)cc1C1C(C(=O)OC)=C(N)Oc2cc(N(C)C)ccc21 (stereo not given)	-25%	6%	-7.5%	?	-20%	?	0%	-18%
10	CC1Oc2ccccc2N(CC(=O)Nc2ccc3c(c2)OCCO3)C1=O (stereo not given)	25%	2%	2.1%	1%	1%	12%	6%	-7%
11	CC(=O)c1cccc(NC(=O)C(C)OC(=O)/C=C/c2cccs2)c1 (stereo not given)	-25%	·	·	-15%	3%	-19%	-26%	·
12	COc1ccc(OC)c(NC(=O)c2ccc(S(=O)(=O)N3CCN(C)CC3)cc2)c1	27%	2%	0.7%	0%	9%	10%	8%	-1%
13	COc1cc(OC)cc(C(=O)Nc2nnc3n2CCS3)c1	-21%[46.1 µM]	·	0.0%	-7%	·	·	·	-2%
14	O=C(CCS(=O)(=O)c1ccc2c(c1)NC(=O)CO2)NCCc1ccccc1	·	-12%	·	2%	-1%	·	2%	·
15	COc1cccc(-n2c(=O)c3sccc3n(CC(=O)NC3CCCCC3)c2=O)c1	-1%	1%	·	-3%	3%	15%[46.1 µM]	1%	·
16	CSc1ccccc1OCc1cc(C(=O)N(C)Cc2c(C)n[nH]c2C)no1	-29%	13%	·	-9%	?	11%	-12%	·
17	CC(=O)c1ccc(NC(=O)c2cc3c(=O)oc4ccc(C)cc4c3s2)cc1	1%[46.1 µM]	·	0.5%	1%	·	4%[46.1 µM]	·	9%
18	Cc1ccc(C(=O)CCC(=O)Nc2ccc(Cl)c(S(=O)(=O)Nc3cccc(Cl)c3)c2)cc1	?	14%	-1.5%	28%	-9%	-13%	3%	?
19	Cc1sc2ncn(CC(=O)NCCN3CCOCC3)c(=O)c2c1S(=O)(=O)N1CCC(C)CC1	2%	1%	5.3%	·	16%	17%	2%	4%
20	O=C(NCc1ccc(F)cc1)C(=O)NCC1OCCN1S(=O)(=O)c1ccc2c(c1)OCCO2 (stereo not given)	-13%	-1%	·	-14%	-3%	2%	-4%	·
21	O=C(COc1c(Cl)cc(Cl)cc1Cl)c1ccc(Cl)cc1	11%	4%	-2.0%	-22%	15%	10%	11%	?
22	N#C/C(=C/c1cccnc1)c1ccccc1	11%	-37%	·	22%	-1%	13%	?	·
23	CCN(CCCNC(=O)c1cc2c(=O)[nH]c3ccc(C)cc3c2s1)Cc1ccccc1	?	·	-11%	?	·	11µM*	·	-6%
24	Cc1cc(C(=O)Nc2cccc(C(F)(F)F)c2)c2c(C)nn(-c3cccc(F)c3)c2n1	?	·	-15%	-3%	·	·	·	?
25	Cc1c(OCC(=O)OC(C)C)ccc2c3c(c(=O)oc12)CCC3	9%	-9%	-5.6%	0%	0%	-1%[46.1 µM]	-24%	10%
26	Cc1ccc(C(=O)N/N=C\c2ccc(OC(=O)c3cccs3)cc2)cn1	6%	-31%	3.0%	-10%	-13%	-23%	16%	-19%
27	CCOC(=O)c1ccccc1NC(=O)c1ccc(N(C)S(C)(=O)=O)cc1	-13%	0%	-3.8%	·	0%	-4%	4%	?
28	CC(=O)c1cccc(N(C(=O)CNC(=O)c2ccco2)C(C(=O)NCc2ccco2)c2ccccc2)c1 (stereo not given)	·	-5%	·	-7%	0%	·	-4%	·
29	COc1ccc(Cn2c(SCc3ccc(C(=O)NCc4cccs4)cc3)nc3ccncc32)cc1	·	·	1.0%	-25%	·	?	·	-5%
30	COC(=O)c1cc(NC(=O)Cc2ccc(OC)c(OC)c2)cc(C(=O)OC)c1	-10%	11%	0.1%	-3%	4%	1%[46.1 µM]	-5%	13%
31	C/C(CC(=O)Nc1ccc(C)cc1C)=N\NC(=O)C(C)C	-15%	0%	·	-14%	1%	25%[46.1 µM]	-8%	·
32	CCOc1ccc(C2C(=O)N(C3CCCCCC3)CC(=O)N2Cc2ccc(F)cc2)cc1OC (stereo not given)	-13%[46.1 µM]	·	0.3%	-10%	·	·	·	24%
33	COc1ccccc1CNC(=O)COC(=O)COc1ccccc1Cc1ccccc1	0%	·	·	-14%	-1%	0%	-21%	·
34	CCn1nc(-c2ccccc2)c(-c2ccccc2)c(C(=O)Nc2ccc(S(N)(=O)=O)cc2)c1=O	8%[46.1 µM]	·	-1.9%	-15%	·	12%[46.1 µM]	·	?
35	CCc1ccc(NC(=O)C(=O)NCC(c2cccnc2)N2CCN(c3ccc(F)cc3)CC2)cc1 (stereo not given)	-11%[46.1 µM]	·	6.7%	-30%	·	·	·	?
36	CC(C)NC(=O)C1CC=CCC1C(=O)O (stereo not given)	17%	20%	-0.3%	3%	13%	?	·	-5%
37	COc1ccc(-n2c(O)c(/C(C)=N/N3CCCCCC3)c(=O)[nH]c2=O)cc1	2.2µM*	3%	·	13%	-2%	?	-8%	·
38	Cc1ccc(O)c(C(=O)c2cc(C#N)c(=O)n(CC3CCCO3)c2)c1 (stereo not given)	2%	-7%	0.8%	-2%	3%	7%	3%	-18%
39	O=C(c1cccc(-c2ccc(O)cc2)c1)N1CCN(c2ccc(F)cc2)CC1	?	-4%	·	-12%	-2%	1%[46.1 µM]	1%	·
40	Cc1ccc(S(=O)(=O)c2nc(S(C)(=O)=O)sc2N(C)C)cc1	-29%	6%	-2.1%	68%[activator]	3%	9%	1%	-13%
41	CC(=O)CCc1oc2ccc(C)cc2c1Cc1ccccc1	-3%	-3%	·	6%	1%	?	-17%	·
42	CC(C)c1ccc(NC(=O)NCc2cccnc2)cc1	18%	0%	·	41%[activator]	?	6%	-11%	·
43	O=C(COC(=O)c1ccccc1NC(=O)c1ccco1)NC1CCCCC1	-1%	-4%	-1.5%	-21%	1%	2%[46.1 µM]	7%	3%
44	CN(C)c1nc(SCCOC(=O)c2ccccc2)nc(N(C)C)n1	2%	-28%	1.9%	-3%	-11%	7%	-18%	-14%
45	O=C(c1nc2ccccn2c1CNCCCn1cccn1)N1CCCC1	·	2%	·	-17%	-1%	·	-9%	·
46	CN(C)c1ccc(/C=N/NC(=O)c2cnc3ccccc3c2)cc1	·	-8%	·	41%[activator]	0%	·	-9%	·
47	COc1ccc(OCCn2nnc(-c3ccc(Cl)cc3)n2)cc1	12%	-3%	-7.9%	-9%	24%	?	19%	13%
48	COc1ccc(OCCCCN2CCC(C)CC2)cc1	·	0%	·	-23%	0%	·	-1%	·
49	CCCc1cc2c(=O)n(NC(=O)c3nn(C)cc3[N+](=O)[O-])c(C)nc2s1	6%	16%	-5.4%	-10%	26%	10%	1%	-8%
50	COC(=O)c1cc(OC)c(OC)cc1NC(=O)C(C)c1ccc([N+](=O)[O-])cc1 (stereo not given)	·	3%	-2.8%	-10%	4%	·	12%	?
51	S=c1[nH]nc(-c2ccccc2)n1CC1CCCO1 (stereo not given)	11%	7%	8.2%	0%	·	?	10%	-2%
52	COC(=O)c1sc(SC)c(S(=O)(=O)C(C)C)c1N/N=C(\C#N)C(=O)c1ccccc1	-24%[46.1 µM]	11%	·	?	0%	-4%[46.1 µM]	4%	·
53	O=C(Nc1ccnc(-c2ccncc2)n1)c1ccc(F)cc1	-18%	·	·	-11%	0%	3%	-4%	·
54	O=C(CCn1c(=O)oc2ccccc21)NCCN1CCOCC1	·	2%	·	-9%	2%	·	12%	·
55	O=C(c1ccco1)N1CCN(C(=O)c2cc3c(s2)-c2ccccc2OC3)CC1	4%	-73%	-26%	0%	-10%	31%&31%	4%	3%
56	CC1CCCCC1NC(=O)CCNC(=O)N1CC(=O)Nc2ccccc21 (stereo not given)	-5%[46.1 µM]	5%	·	11%	1%	?	-12%	·
57	O=C(Nc1ccccc1C(=O)N/N=C/c1ccco1)c1ccccc1	0%	-6%	-4.5%	8%	-24%	21%	?	1%
58	COCC1CCN(Cc2cn[nH]c2-c2ccc(OC)cc2F)C1 (stereo not given)	6%[46.1 µM]	9%	·	0%	0%	7%[46.1 µM]	-22%	·
59	COc1ccc(S(=O)(=O)Nc2cc(C)ccn2)cc1	-1%	8%	5.3%	79%[activator]	20%	10%	-1%	-5%
